SARS PLP yeast: qHTS of Yeast-based Assay for SARS-CoV PLP. S. cerevisiae expressing SARS-CoV PLpro, growth rescue; control for the full effect not named in the record. Potency, µM (doses to about 32.9 µM), for the others: top-dose activity, positive = growth rescue. 0.19% of 330,000 active. AID 485353, 2010; active means well fitted rising curve with a large enough effect; inconclusive means small, poorly fitted or top-dose-only effect; inactive means no such curve, though single readings can be large or run the other way; also: 0% is about no effect; nearly all actives have a fitted effect of over 55% in size; growth read by luminescence after 48 h
LASV entry inh: qHTS for Inhibitors of binding or entry into cells for Lassa Virus. Lassa virus pseudotype entry inhibition, cell reporter; control for the full effect not named in the record. Potency, µM (titrated, usually from 37.9 µM), for the others: top-dose activity change, negative = inhibition, most hits filed as inhibitors. 1.2% of 300,000 active; active means well fitted inhibition curve with a large enough effect; inconclusive means small, poorly fitted or top-dose-only effect, or effect the other way; inactive means flat fitted curve, though single readings scatter; tested in HEK293 cells; also: % is scaled to controls: 0 for no effect and ±100 for the full control effect; nearly all actives have a fitted effect of over 50% in size; luciferase read-out
Marburg entry inh: qHTS for inhibitors of binding or entry into cells for Marburg Virus; Marburg virus pseudotyped entry inhibition, cell reporter; control for the full effect not named in the record; about a third of the inactives were read at about 46 µM; Potency, µM (doses to about 37.8 µM), for the others: at the top dose activity change, negative = inhibition, usual class: inhibitors; 1.8% of 300,000 active; active = well fitted inhibition curve with a large enough effect; inconclusive = small, poorly fitted or top-dose-only effect, or effect the other way; inactive = flat fitted curve, though single readings scatter; tested in HEK293 cells; about a fifth of its hits are not listed in these tables; also: % is scaled to controls: 0 for no effect and ±100 for the full control effect; luciferase read-out
Cruzain Triton: qHTS Assay for Promiscuous and Specific Inhibitors of Cruzain (with detergent) | Cruzipain (Trypanosoma cruzi), P25779 | purified cruzain, Z-FR-AMC fluorescence, 0.01% Triton | Potency, µM, for inactives: max response, negative = inhibition, usual class: inhibitors | 0.43% of 200,000 active;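 also: plate controls were neutral wells for no effect and buffer without enzyme for full effect; nearly all actives have a fitted effect of over 40% in size; top concentration of the series not given in the record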
Target sequence (P25779 123-467 limits assumed): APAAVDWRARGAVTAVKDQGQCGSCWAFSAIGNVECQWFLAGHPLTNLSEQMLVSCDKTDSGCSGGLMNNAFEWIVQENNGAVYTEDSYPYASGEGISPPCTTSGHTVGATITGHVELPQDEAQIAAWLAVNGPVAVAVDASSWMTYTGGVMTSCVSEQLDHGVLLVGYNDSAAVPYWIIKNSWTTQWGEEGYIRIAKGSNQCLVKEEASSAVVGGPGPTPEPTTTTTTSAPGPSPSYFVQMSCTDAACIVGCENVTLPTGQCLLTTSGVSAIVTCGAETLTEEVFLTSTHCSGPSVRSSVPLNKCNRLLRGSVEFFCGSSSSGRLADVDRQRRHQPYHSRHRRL
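Z-FR-AMC hydrolysis (2 uM substrate) by cruzain (1.5 nM) monitored kinetically at ex 360/em 450 nm after 15 min room-temperature compound exposure; 0.01% Triton X-100, pH 5.5, 5 mM DTT.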
2A StopGo: High Throughput Screening for Foot and Mouth Disease Virus Antivirals; human cells with a luciferase reporter of 2A StopGo recoding; control for the full effect not named in the record; Potency, µM (highest dose often 57.9 µM), inactives show top-dose signal change, negative = less light; 1.2% of 410,000 active; active = well fitted falling curve with a large enough effect; inconclusive = small, poorly fitted or top-dose-only effect; inactive = no such curve, though single readings can be large or run the other way; tested in HEK293T cells; also: % is scaled to controls: 0 for no effect and ±100 for the full control effect; nearly all actives have a fitted effect of over 45% in size; luciferase light after 4 h
Cruzain noTriton: qHTS Assay for Promiscuous and Specific Inhibitors of Cruzain (without detergent); purified cruzain, Z-FR-AMC fluorescence, no detergent; 2.3% of 200,000 active; Cruzipain (Trypanosoma cruzi), P25779; Potency, µM, inactives show max response, negative = inhibition, hits mostly inhibitors; AID 1476, 2009;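 also: plate controls were enzyme without inhibitor for no effect and buffer without enzyme for full effect; nearly all actives have a fitted effect of over 40% in size; top concentration of the series not given in the record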
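Detergent-free condition (0.00005% Triton X-100) in acetate buffer pH 5.5 with DTT. 1.5 nM enzyme and compound were pre-mixed 15 min, then 2 uM Z-FR-AMC substrate added; reaction progress from fluorescence change between first and third reads (60 s).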
RE007 growth inh: qHTS Assay for Inhibitors of the HIV-1 protein Vpr | S. pombe RE007 Vpr strain, BacTiter-Glo ATP luminescence, 24 h; control for the full effect not named in the record | Potency, µM (titrated, usually from 92.2 µM), inactives show top-dose activity change, negative = less growth | 0.21% of 360,000 active; active = well fitted falling curve with a large enough effect; inconclusive = small, poorly fitted or top-dose-only effect; inactive = no such curve, though single readings can be large or run the other way;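 also: % is scaled to controls: 0 for no effect and ±100 for the full control effect; nearly all actives have a fitted effect of over 50% in size; the assay follows cell death caused by Vpr and the record does not say whether a fall means rescue or toxicity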
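Fission yeast RE007 carrying one integrated HIV-1 vpr copy, seeded at OD 0.01 in PMG+AL medium with 23 nL pinned compound. Grown 24 h at 30 degrees; viability read by BacTiter-Glo luminescence after 5 min.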
NS1 function inh: qHTS Assay for Inhibitors of Influenza NS1 Protein Function; S. cerevisiae slowed by influenza A NS1, growth recovery by OD600; Potency, µM (highest dose often 46.1 µM), inactives show top-dose activity, positive = more growth; 0.4% of 270,000 active; AID 2326, 2010; active means well fitted rising curve with a large enough effect; inconclusive means small, poorly fitted or top-dose-only effect; inactive means no such curve, though single readings can be large or run the other way; also: nearly all actives have a fitted effect of over 50% in size
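OD600 was taken as the measure of yeast growth restored by compound in an NS1-expressing S. cerevisiae strain. Cells had been washed out of glucose medium and diluted 1:100 into galactose -URA medium, pH 6.0.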
The depositor's hits bear a star; ? = inconclusive; . = not tested or not shown; & = joins results of further samples; [ ] = dose if it differs, or a comment. Unless noted, calls follow the shape of the dose curve; as a rule, active = well fitted curve in the direction sought with a large enough effect; inconclusive = small, poorly fitted or top-dose-only effect, or another doubt; inactive = no such curve, though single readings can be large; an effect the other way counts as inactive or inconclusive. Potency is read from the fitted curve at half-maximal effect.

SMILES	SARS PLP yeast	LASV entry inh	Marburg entry inh	Cruzain Triton	2A StopGo	Cruzain noTriton	RE007 growth inh	NS1 function inh
COc1ccc(NP(=O)(Nc2ccc(OC)cc2)Oc2ccccc2)cc1	5%	?	?	-5.9%	8%	-9%	5%	-11%
CCC(=O)Nc1ccc(C(=O)Nc2cc(C)on2)cc1	?	-13%	0%	4.4%	55%[activator]	3%	3%	-4%
CCOc1ccc(NC(=O)CCn2c(=O)c3cccn3c3cccnc32)cc1	.	-9%[46.1 µM]	.	-0.9%	-1%	-3%	.	.
Cc1nc2c3c4c(sc3n3c(SCC(=O)NCc5ccco5)nnc3n2n1)COC(C)(C)C4	-1%	-9%	12%&12%	-2.4%	-22%	-15%	-13%	-5%
Cc1cc2c(cc1S(=O)(=O)Nc1cccc(C)c1C)OCC(=O)N2	?	.	.	.	11%	.	2%	15%
CCOC(=O)N1CCN(C(=O)CN(Cc2ccc(Cl)cc2)S(=O)(=O)c2ccccc2)CC1	-10%	?	-18%	-2.7%	5%	?	2%	-17%
O=C(COc1ccccc1)Nc1nc2ccccc2[nH]1	-2%	?	?	-3.9%	49%[activator]	-14%	-5%	-13%
Cc1ccc(NS(=O)(=O)c2ccc(-n3cccn3)cc2)cc1F	?	13%[46.1 µM]	18%[46.1 µM]	.	15%	.	-2%	3%
Cc1ccccc1OCC(=O)OCn1nnc2ccccc2c1=O	-2%	-15%	-12%[46.1 µM]	.	-5%	.	-27%	-5%
Cc1ccc(SCC(=O)N(C)CC(=O)Nc2cccc(F)c2)cc1	-3%	?	-18%	.	1%	.	-18%	.
COc1ccc2c3c([nH]c2c1)C(C)N(CCC(=O)NN)CC3 (stereo not given)	-10%	-3%[46.1 µM]	?	.	14%	.	-17%	8%
Cn1ncc(N=Cc2ccc([N+](=O)[O-])cc2)c1C(=O)Nc1ccccc1	-3%	?	?	.	0%	.	11%	.

The listing continues:
SMILES	SARS PLP yeast	LASV entry inh	Marburg entry inh	Cruzain Triton	2A StopGo	Cruzain noTriton	RE007 growth inh	NS1 function inh
Cc1ccc(-c2noc(-c3ccccc3OCC(=O)Nc3ccccc3[N+](=O)[O-])n2)cc1	.	-22%[46.1 µM]	-22%[46.1 µM]	-9.4%	30%[activator]	-21%	.	.
Cc1cccc(NC(=O)c2oc3ccccc3c2NC(=O)Cc2coc3ccc(C(C)C)cc23)c1	.	3%[46.1 µM]	?	-2.5%	-11%	-27%	.	.
CCCn1c(N)nc2ccccc21	3%	12%	-15%	-4.6%	-15%	-7%	-8%	-1%
Cc1nn(Cc2ccc(Cl)cc2Cl)c(C)c1NC(=O)C1C2CCC(O2)C1C(=O)O (stereo not given)	13%	5%	-24%[46.1 µM]	-0.4%	?	0%	8%	-6%
Cc1ccc(NC(=O)CNC2CCS(=O)(=O)C2)cc1C (stereo not given)	-4%	2%	3%[46.1 µM]	.	2%	.	-3%	.
NS(=O)(=O)c1ccc(CNC(=O)c2ccc(S(=O)(=O)C(F)F)cc2)cc1	2%	-3%	?	.	-1%	.	2%	-4%
O=C(NC(Nc1ccc(F)cc1)(C(F)(F)F)C(F)(F)F)c1cccnc1	-14%	3%	?	0.5%	7%	7%	-4%	15%
Cc1cc(C)c(C#N)c(SCc2cn3c(C)cccc3n2)n1	-12%	0%	7%	-8.4%	-17%	0%	-6%	4%
COc1cc2c(cc1OC)C(COc1ccc(C(C)C)cc1)N(C(=O)c1ccc(S(=O)(=O)N3CCCC3)cc1)CC2 (stereo not given)	.	-22%[46.1 µM]	.	0.0%	?	0%	.	.
Cc1cc(C)nc(NS(=O)(=O)c2ccc(N=Cc3c(O)n(C)c(=O)n(C)c3=O)cc2)n1	1%	4%	5%	.	11%	.	17%	5%
COC(=O)C(C)NS(=O)(=O)c1ccc(NC(C)=O)cc1 (stereo not given)	6%	0%	1%	2.1%	.	-4%	9%	5%
Cc1nc(NC(=O)c2ccccc2)sc1-c1csc(N)n1	-20%	4%	?	-8.9%	26%	-14%	-9%	-9%

Quoted at random: 2 entries already listed
SMILES	SARS PLP yeast	LASV entry inh	Marburg entry inh	Cruzain Triton	2A StopGo	Cruzain noTriton	RE007 growth inh	NS1 function inh
O=C(NC(Nc1ccc(F)cc1)(C(F)(F)F)C(F)(F)F)c1cccnc1	-14%	3%	?	0.5%	7%	7%	-4%	15%
NS(=O)(=O)c1ccc(CNC(=O)c2ccc(S(=O)(=O)C(F)F)cc2)cc1	2%	-3%	?	.	-1%	.	2%	-4%

Continued:
SMILES	SARS PLP yeast	LASV entry inh	Marburg entry inh	Cruzain Triton	2A StopGo	Cruzain noTriton	RE007 growth inh	NS1 function inh
O=C(NCc1ccccn1)c1ccc(OC2CCN(Cc3ccc(Cl)s3)CC2)cc1	?	.	.	.	-10%	.	-10%	-19%
O=C(C[n+]1cccc(Br)c1)c1ccc(-c2ccccc2)cc1	-3%	.	.	.	5%	.	-12%	-1%
Cc1ccc(S(=O)(=O)N2CCCC2CNC(=O)C(=O)NCc2cccs2)cc1 (stereo not given)	-4%	-29%	?	.	-5%	.	3%	.
CCC(CO)NC(=O)C(=O)Nc1c2c(nn1-c1ccc(F)cc1)CSC2 (stereo not given)	.	8%[46.1 µM]	.	?	-14%	?	.	.
Cc1cccc(C(=O)NCC(=O)NC(C)CCc2ccccc2)c1 (stereo not given)	0%	.	.	.	0%	.	9%	14%
O=C1C(Cl)=C(O)C2(Cl)C(Cl)=C(Cl)C12Cl (stereo not given)	.	3%[46.1 µM]	8%[46.1 µM]	.	49%[activator]	.	6%	.
Cc1csc(NC(=O)Nc2ccccc2[N+](=O)[O-])n1	0%	?	?	.	18%	.	4%	-10%
Cc1ccc(-n2c(=O)c3c(cnn3C)n(CC(=O)Nc3ccccc3C)c2=O)cc1	.	23%[46.1 µM]	?	-0.3%	-25%	1%	.	.
COC(=NC1CCCCC1)C(O)c1c[nH]c2ccccc12 (stereo not given)	-8%	4%	0%	3.0%	-14%	-6%	-1%	-3%
Cc1ccc(CN(C(=O)COc2ccc(C(C)(C)C)cc2)C2CCS(=O)(=O)C2)o1 (stereo not given)	.	-26%[46.1 µM]	?	-9.7%	-22%	?	.	.
Cc1ccccc1NC(=S)NNc1ncc(C(F)(F)F)cc1Cl	13%	-39%	?	-0.6%	-26%	-7%	-6%	4%
Cc1cc(C)cc(NC(=O)NC2CCCCCCC2)c1	0%	-6%[46.1 µM]	-17%[46.1 µM]	.	17%	.	2%	-25%

(more compounds)
SMILES	SARS PLP yeast	LASV entry inh	Marburg entry inh	Cruzain Triton	2A StopGo	Cruzain noTriton	RE007 growth inh	NS1 function inh
O=C(CSc1nc2ccccc2[nH]1)c1ccccc1F	-1%	?	1%[46.1 µM]	.	9%	.	8%	9%
CCn1nc(C(=O)OCC(=O)Nc2ncc(Cl)c(C)c2Cl)c2ccccc2c1=O	0%	9%	-10%	-3.6%	1%	6%	21%	6%
Cc1ccc(C(C(=O)NC2CCCCC2)N(C(=O)c2csnn2)c2ccccc2F)o1 (stereo not given)	4%	-1%	3%[46.1 µM]	.	-3%	.	-1%	7%
CCc1cccc(NC(=O)C2CCN(S(=O)(=O)c3cccc(-c4noc(C)n4)c3)CC2)c1	.	?	.	1.5%	-31%	-4%	.	.
Cc1ccccc1C(=O)NCC(=O)NCC1(N2CCOCC2)CCCCC1	4%	-9%[46.1 µM]	-20%	.	-4%	.	-6%	.
CC(=O)c1cccc(NC(=O)c2ccc(NS(=O)(=O)c3c(C)noc3C)cc2)c1	4%	2%	17%	-3.1%	-2%	-17%	1%	-7%
Cc1cc(NC(=O)c2ccno2)no1	1%	.	.	.	-24%	.	27%	-3%
CCN(CC)CCNC(=O)C(Oc1ccccc1)Oc1ccccc1	0%	0%[46.1 µM]	?	.	-2%	.	-12%	4%
S=c1[nH]nc(-c2cc(-c3ccsc3)n[nH]2)n1-c1ccccc1	1%	.	.	.	-19%	.	1%	-4%
CSc1ccccc1NC(=O)c1ccccn1	-1%	?	?	.	49%[activator]	.	-20%	.
COc1ccc([N+](=O)[O-])cc1N(CC(=O)NC(C(C)C)C(C)C)S(C)(=O)=O	17%	3%	20%[46.1 µM]	.	20%	.	-11%	0%
COC(=O)c1coc(-c2ccc(C)cc2)c1C(=O)OC	-9%	?	27%	3.7%	21%	15%	-22%	-45%

Next section:
SMILES	SARS PLP yeast	LASV entry inh	Marburg entry inh	Cruzain Triton	2A StopGo	Cruzain noTriton	RE007 growth inh	NS1 function inh
Cc1c(CCC(C)C)c(-n2ccnc2C)n2c(nc3ccccc32)c1C#N	1%	-2%	-6%	-2.1%	-13%	6%	11%	-1%
C#CCO[C@@H]1C[C@H](n2cnc3c(NC(=O)c4ccccc4)ncnc32)O[C@@H]1CO	0%	.	.	.	30%	.	7%	-1%
Fc1ccc(CN2CCSCC2)cc1F	6%	8%	?	.	-8%	.	-20%	-13%
COc1ccc(/C=C/C(=O)NC(=S)Nc2ccccc2)cc1OC	1%	-8%[46.1 µM]	-2%[46.1 µM]	.	1%	.	1%	5%
CCOC(=O)C1=C(C)NC(=O)NC1c1ccc(OC(=O)c2ccco2)c(OC)c1 (stereo not given)	-2%	15%	8%	-0.6%	.	-10%	-2%	14%
Cc1cc(NC(=O)CCC(=O)N(CC(=O)NCC2CCCO2)c2ccc(Cl)c(Cl)c2)no1 (stereo not given)	12%	8%	13%[46.1 µM]	.	-5%	.	-18%	-4%
Cc1ccc(Cn2c(N3CCN(C)CC3)nc3c2c(=O)[nH]c(=O)n3C)cc1	3%	4%	?	.	0%	.	-9%	2%
c1ccc(C(OCCN2CCNCC2)c2ccccc2)cc1	4%	0%	-20%	4.7%	-6%	3%	10%	-2%

Screens deposited in PubChem by National Center for Advancing Translational Sciences (NCATS).
